AID504770: E. coli YBA685 growth inhibition, screen for V. cholerae RctB inhibitors; E. coli YBA685 rctB-dependent plasmid, OD600 growth, 3 h; stronger effect = lower value; z-score (concentration not given with the values); hit rate 0.27% among 130,000; AID 504770;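 active = z-score under -2 on both plates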;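 note: wells of about 30 µL received 100 nL stock; score is relative to mean and SD of the test wells; the first replicate is given; strong numbers were not always called active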
Ba CapD inh: CapD enzyme inhibition; hit rate 0.23% among 140,000; purified CapD enzyme, fluorescence intensity read-out; stronger effect = lower value; some hits fall short of the stated cut; z-score (no concentration beside the values);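 active = z-score under -4 in either of two replicates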;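 note: stock transfer was 100 nL into about 40 µL; score is relative to mean and spread of the plate; one replicate is shown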
Numbers without * were called inactive; x = no result given.

SMILES	AID504770	Ba CapD inh
COc1ccc(Cc2nc3ccc(S(=O)(=O)N4CCOCC4)cc3[nH]2)cc1	1.1	x
CCOC(=O)c1c[nH]c2cc3c(cc2c1=O)OCCO3	-1.3	5.21
FC(F)(F)Oc1ccc(C2c3ccsc3CCN2Cc2nc3ccccc3s2)cc1 (centres undefined)	0.7	0.31
CCOC(=O)C1CCCN(Cc2cc(=O)n3ccsc3n2)C1 (centres undefined)	-0.6	x
CCc1nn(-c2ccccc2)c2nc(-c3ccccc3O)c3cc(OC)c(OC)cc3c12	2.3	-0.345
COc1ccc2cc(/C(C)=N/Oc3ncccc3[N+](=O)[O-])ccc2c1	x	2.72
O=C(O)CN1C(=O)S/C(=C\c2ccccc2Cl)C1=O	-0.65	-1.95
C=CCn1c(=NC(=O)c2ccc(F)cc2)sc2cc(C(=O)OC)ccc21	0.05	0.995
COc1ccc(NC(=O)Cc2c(F)c(F)c(F)c(F)c2F)cc1OC	1.1	0.535
Cc1cc(C=Nc2ccc(O)c(C(=O)O)c2)c(C)n1-c1ccc(N(C)C)cc1	-0.7	-0.185
COc1ccccc1OCCN1CCCCC1	1.7	-0.135
CC(C)CCNC(=O)C1CCN(C(=O)c2cc3sccc3n2Cc2ccc(F)cc2)CC1	1.1	-0.29
O=C(NO)C12CCC(CC1)C2	-1	0.37
CCOC(=O)C1=C(N)Oc2c(c(=O)oc3ccccc23)C1c1c(F)cccc1Cl (centres undefined)	x	-0.18
Cc1scc(-c2ccccc2)[n+]1C	-0.15	0.865
Cc1occc1C(=O)C(C#N)=C1SCCCCS1	-0.05	-0.425
ON=Cc1cccn1-c1ccccc1	-0.85	-0.09
COc1ccc(-c2[nH]nc3c2C(c2cc(Cl)c(OC(=O)N4CCOCC4)c(OC)c2)C(C#N)=C(N)O3)cc1 (centres undefined)	x	-0.055
c1ccc(C2OCC3(CO2)COC(c2ccccc2)OC3)cc1 (centres undefined)	-0.05	-0.92
COC(=O)c1ccc2c(c1)C1C=CCC1C(c1ccc(F)cc1)N2 (centres undefined)	x	0.92
Cc1nnc(Sc2nc(Nc3ccccc3)nc(Nc3ccccc3)n2)s1	-0.65	-0.995
CCOc1ccc(NC(=O)CSc2nc3ccccc3c(=O)n2NC(=O)c2ccccc2)cc1	x	1.17
O=C(NCc1cccnc1)c1cnn2c1NC(c1ccccc1)CC2C(F)(F)F (centres undefined)	0.4	-0.325
Cn1c2c(c(=O)n(C)c1=O)C(c1cccc(Cl)c1)C1C(=O)c3ccccc3C1=N2 (centres undefined)	-0.6	-0.73
CCCn1c(SCC(O)c2ccc(OC)cc2)nc2ccccc21 (centres undefined)	-0.05	0.195
COc1cc(C(=O)NC(c2ccc3c(c2)OCO3)c2cc(Cl)c3cccnc3c2O)cc(OC)c1OC (centres undefined)	x	0.545
CCOC(=O)C1=NN(c2ccc(Br)cc2)C2(S1)SC(c1ccccc1)(c1ccccc1)c1ccccc12 (centres undefined)	x	-0.575
O=C(CCl)Nc1ccc(S(=O)(=O)c2ccc(Br)cc2)cc1	x	0.175
O=C(Cc1ccccc1)Nc1nn2c(COc3ccccc3)nnc2s1	-0.45	-0.64
O=C(Nc1ccccc1)c1cc(Br)cc2c1OCC2	-0.5	-0.64
O=S(=O)(c1cc(Cl)sc1Cl)N1CCN(Cc2ccco2)CC1	x	-0.29
Cc1c(-c2nc(-c3ccc(NC(=O)c4cccs4)cc3)no2)cccc1[N+](=O)[O-]	x	0.16
Cc1ccc(NC(=O)C(Cc2c[nH]c3ccccc23)NC(=O)C(c2ccccc2)c2ccccc2)cc1 (centres undefined)	-0.25	-0.595
COc1ccc(C2C3=C(CCCC3=O)NC3=C2C(=O)CCC3)cc1	x	4.66
Cc1c(C(=O)N2CCN(Cc3ccccc3)CC2)sc2ncn(C)c(=O)c12	x	0.06
Cc1cc(NC(=O)c2ccccc2C)n(-c2nc3ccccc3[nH]2)n1	0.9	2.73
COc1ccc(C)cc1NC(=O)COc1ccccc1F	0	-0.025
O=C(NCc1nnc(SC/C=C/c2ccccc2)o1)c1ccco1	1.4	-0.44
CC1CC(=O)C2=C(O1)c1c(ccc3ncccc13)NC2c1ccc(Cl)cc1Cl (centres undefined)	-1.1	59.8
Cc1onc(-c2ccccc2)c1C(=O)Nc1ccc2c(C)cc(=O)oc2c1	1.75	x

Seven successive entries from above:
SMILES	AID504770	Ba CapD inh
COc1ccc(Cc2nc3ccc(S(=O)(=O)N4CCOCC4)cc3[nH]2)cc1	1.1	x
CCOC(=O)c1c[nH]c2cc3c(cc2c1=O)OCCO3	-1.3	5.21
FC(F)(F)Oc1ccc(C2c3ccsc3CCN2Cc2nc3ccccc3s2)cc1 (centres undefined)	0.7	0.31
CCOC(=O)C1CCCN(Cc2cc(=O)n3ccsc3n2)C1 (centres undefined)	-0.6	x
CCc1nn(-c2ccccc2)c2nc(-c3ccccc3O)c3cc(OC)c(OC)cc3c12	2.3	-0.345
COc1ccc2cc(/C(C)=N/Oc3ncccc3[N+](=O)[O-])ccc2c1	x	2.72
O=C(O)CN1C(=O)S/C(=C\c2ccccc2Cl)C1=O	-0.65	-1.95

Next part:
SMILES	AID504770	Ba CapD inh
CC(Oc1ccc2c(-c3ccccc3)cc(=O)oc2c1)C(=O)ON1C(=O)CCC1=O (centres undefined)	-0.1	3.71
Cc1nc(S(=O)(=O)NCCNc2ccc(-c3ccc(F)cc3)nn2)cn1C	-0.5	0.43
O=C(c1ccco1)c1cn(CCOc2ccccc2Cl)c2ccccc12	-0.1	0.67
O=C(NNC(=S)NC1CCCCC1)c1ccncc1	x	-0.055
OCCn1c(SC2CCCCC2)nc2ccccc21	-0.4	60.7
CN(C)/C=C(/C(=O)c1ccc(Cl)cc1)S(=O)(=O)c1ccccc1	x	-1
CN(C(=S)NCc1ccco1)C(c1ccccc1)c1ccccc1	0.95	x
NNC(=O)C1C2CCCCC21 (centres undefined)	-0.4	0.4
CCOc1ccc(-c2nc(NC(C)=O)c3c(=O)oc4ccccc4c3n2)cc1	-0.05	0.055
CCCCn1c(SCC(=O)NCc2ccccc2)nc2c(sc3ccccc32)c1=O	-0.25	-0.19
COc1ccc(CSc2nncn2N)cc1	1.4	-0.005
O=C(Nc1ccc2oc(=O)ccc2c1)c1cccs1	-0.4	x
CCOC(=O)c1c(CSc2nc(C)cc(C)c2C#N)n(C)c2cc(Br)c(OC(C)=O)cc12	x	-0.27
CCc1nc(SC)ncc1C(=O)NCCN1CCN(c2cccc(Cl)c2)CC1	-0.55	-1.56
CC1(C)Cc2ccccc2-c2cc3nc4ccccc4nc3n21	0.75	0.305
O=C(CSc1nc(SCC(=O)c2ccccc2)c2ccccc2n1)c1ccccc1	-0.4	0.39
Cn1nc(NCc2ccc(Cl)cc2)c(=O)n(C)c1=O	1.4	x
Cc1nnc(SCC#N)n1-c1ccccc1	1	0.645
N#Cc1ccsc1NC(=O)c1ccccc1	1.55	-0.525
COc1ccc2c(c1)CCC1Sc3ccccc3N=C21 (centres undefined)	1.95	3

One compound at a time, as listed above. Order of values: AID504770, Ba CapD inh
Record of COc1ccc(C)cc1NC(=O)COc1ccccc1F : 0, -0.025
Record of CCOc1ccc(-c2nc(NC(C)=O)c3c(=O)oc4ccccc4c3n2)cc1 : -0.05, 0.055

6 records drawn at random from the list so far:
SMILES	AID504770	Ba CapD inh
CC(Oc1ccc2c(-c3ccccc3)cc(=O)oc2c1)C(=O)ON1C(=O)CCC1=O (centres undefined)	-0.1	3.71
O=C(Nc1ccc2oc(=O)ccc2c1)c1cccs1	-0.4	x
CCc1nc(SC)ncc1C(=O)NCCN1CCN(c2cccc(Cl)c2)CC1	-0.55	-1.56
CCOC(=O)c1c(CSc2nc(C)cc(C)c2C#N)n(C)c2cc(Br)c(OC(C)=O)cc12	x	-0.27
Cc1nnc(SCC#N)n1-c1ccccc1	1	0.645
COc1ccc(CSc2nncn2N)cc1	1.4	-0.005

Next section
SMILES	AID504770	Ba CapD inh
Cn1c(SCC(=O)Nc2ccc(F)cc2F)nnc1-c1c[nH]c2ccccc12	-0.25	-0.35
O=C(/C=C/c1ccco1)NNC(=O)OCC1CCC(=O)N1 (centres undefined)	x	-0.1
CCC(=O)OC1(c2ccccc2)CCN(C)CC1C (centres undefined)	x	0.14
COc1ccc(NC(=O)C(Cc2ccccc2)NS(=O)(=O)c2cccc3cccnc23)cc1 (centres undefined)	-0.15	-0.175
CC(NCc1c(C(=O)O)n(C)c2ccccc12)C12CC3CC(CC(C3)C1)C2 (centres undefined)	-0.85	0.68
CC(C)(C)C(=O)CNS(=O)(=O)c1ccc(S(=O)(=O)N2CCCC2)cc1	0.55	x
O=S(=O)(Cc1ccccc1)N1CCN(Cn2c(SC(F)F)nc3ccccc32)CC1	-0.55	x
O=C(Cn1c(=O)c2ccccc2n2nncc12)Nc1ccc(Br)cc1	-1.6	0.69
CC(C)NC(=O)Cn1ncc2c1-c1ccccc1OC2	-1.15	-0.46
O=C(Oc1ccc2c(c1)OCO2)c1ccncc1	0.45	x
Cc1csc2ncnc(N3CCN(S(=O)(=O)c4cccc(C(F)(F)F)c4)CC3)c12	-1.2	-0.31
COc1cccc(C2Oc3c(OC)cccc3C3CC(c4cccs4)=NN32)c1 (centres undefined)	x	3.09
O=C(c1cccc(C(F)(F)F)c1)c1ccc2ccccc2n1	1.5	-0.115
O=C(CCCCl)Nc1ncnc2c1cnn2-c1ccccc1	-1.65	5.4
CC1CC(c2ccccc2)n2nc(N)nc2N1 (centres undefined)	-0.5	x
S=C1NC2=C(CCc3ccccc32)C(c2ccccc2)N1 (centres undefined)	-0.6	0.05
O=C(c1cc(S(=O)(=O)N2CCCC2)c(Cl)cc1Cl)N1CCCC1	-0.35	0.465
CC1C/C(=C\c2cccnc2)C(=O)/C(=C/c2cccnc2)C1 (centres undefined)	-0.25	-0.785
Cc1cccn2cc(-c3ccc(NC(=O)CC(C)C)cc3)nc12	0.45	50.2
COc1cc(/C=C2\N=C(c3ccccc3F)OC2=O)cc(Br)c1OC(C)=O	x	-0.025
CCOC(=O)c1c(NC(=O)Cc2ccc(Cl)cc2)sc(C(=O)Nc2ccc(C)c(Cl)c2)c1C	x	-0.685
Cc1ccccc1CSCC(=O)NCc1ccccc1	0.25	0.46
Cc1ccc(NC(=O)Cn2cc3c(n2)CCC(C)C3)c(Cl)c1 (centres undefined)	-0.6	-0.265
Cn1c(=O)c(-c2ccccc2N)nc2ccccc21	-0.25	x
O=S1(=O)CCN(OCc2ccc(C(F)(F)F)cc2)CC1	-0.35	-0.385
CSc1sc(C(=O)N2CCCCC2)c(-c2cccs2)c1C#N	3.1	-0.13
CC(C)NC(=O)c1cccc(N2CCCS2(=O)=O)c1	-0.35	1.58
CC(C)CCNC(=O)c1cc2c(s1)-c1ccccc1S(=O)(=O)C2	-0.05	17.6
O=C(C1CCCO1)N1CCN(c2ccccn2)CC1 (centres undefined)	0.8	19.8
CC(=C(C#N)C#N)c1ccc(Br)cc1	0.25	-0.02
COC(=O)C1=[N+]([O-])OC(C(=O)OC)C1c1c[nH]c2ccccc12 (centres undefined)	-0.7	-0.64
CCCCC(=O)NN(C)c1nc(-c2ccccc2)nnc1C(F)(F)F	x	0.025
CCOc1ccc(C(=O)N2CCC(C(=O)OC)CC2)cc1	0.75	0.13
Cn1nnnc1SCc1ccccc1	0.5	x
COc1ccc(CN2CCN(C(=O)COc3ccccc3)CC2)cc1OC	-0.05	-0.23
CN1C(=O)S/C(=C\c2ccc(N(C)C)cc2)C1=O	0.2	x
COC(=O)c1ccc2nc(C)c(C)nc2c1	x	-1.25
COc1cccc(C2C(C#N)=C(N)Oc3c2c(=O)n(C)c(=O)n3C)c1 (centres undefined)	-0.75	1.01
C1=CCC(CNCCN2CCOCC2)CC1 (centres undefined)	0.15	x
COc1ccc(-c2ccc(C#N)c(SCC#N)n2)cc1OC	-0.4	70.2
c1ccc(Cc2nc(NCc3cccnc3)c3c4c(sc3n2)CCCC4)cc1	x	-0.185
O=C(/C=C/c1ccco1)OCc1cccc(C(F)(F)F)c1	0	x
CC(C)N(Cc1ccccc1)C(=O)c1cc(-c2ccccc2)n[nH]1	0.1	-1.8
Nc1nonc1-n1nnc(C(=O)N/N=C/c2cccc(Cl)c2Cl)c1CN1CCCCCC1	x	3.19
CSc1ccccc1NC(=O)CSC1=NCCN1	-0.8	x
O=C1CN(C(=O)c2ccc3c4c(cccc24)CC3)c2ccccc2N1	2.65	1.57
N/C(=N\N=C\c1ccccc1)SC1CC(=O)N(c2ccccc2)C1=O (centres undefined)	-0.75	-0.155
Cc1cc(C)c(C2=CSC3=NS(=O)(=O)CCN23)c(C)c1	-0.05	x
O=C(Cn1ncc(Cl)c(Cl)c1=O)N1CCCc2ccccc21	0.1	x
CC1N=C2c3ccccc3N=C(SCc3ccc(F)cc3)N2C1=O (centres undefined)	-0.2	0.155
O=C(c1ccc(F)cc1)c1c[nH]c(C(=O)NCc2cccc(C(F)(F)F)c2)c1	x	-0.07
COc1cc(OC)c([N+](=O)[O-])c(OC)c1[N+](=O)[O-]	x	-0.48
C=CCN(C(=O)Cn1c(=O)n(-c2ccc(C)cc2)c(=O)c2sccc21)c1ccccc1	0.25	0.965
CC(C)CC(=O)Nc1ccc(C(=O)O)cc1	-0.5	0.07
Cc1ccc(OC(=O)COc2ccc3ccccc3c2)cc1	0.05	1.23
CNC(=S)NCc1ccc(-c2csnn2)cc1	-0.8	-0.71
COc1ccc2c(C)cc(Sc3nnnn3-c3ccccc3)nc2c1	-0.35	2.04
O=C(CSc1ncccc1C(=O)N1CCC(Cc2ccccc2)CC1)Nc1ccc(Cl)cc1	x	-0.34
Cc1scc(CN2CCN(C(=O)c3ccco3)CC2)c1C	-0.4	-0.135
CCSC1=N/C(=C\c2ccc(Br)s2)C(=O)S1	2.2	0.54

Part of the list above, field by field:
CC1N=C2c3ccccc3N=C(SCc3ccc(F)cc3)N2C1=O (centres undefined)
  AID504770 = -0.2
  Ba CapD inh = 0.155

O=C(c1ccc(F)cc1)c1c[nH]c(C(=O)NCc2cccc(C(F)(F)F)c2)c1
  AID504770 = x
  Ba CapD inh = -0.07

Bioassay records deposited in PubChem by ICCB-Longwood Screening Facility, Harvard Medical School.

A portion of the library; the hit share may differ from the screen's.
